FPR binder – human FPR ligand, with FPRL1 counter-screen; FPR-expressing cells, fluorescent ligand binding, flow cytometry; P21462; inhibition, %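 (tested at 6.7 µM)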; 24,000 compounds, 0.74% hits; AID 440;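 further: 0% = buffer wells and 100% = receptor blocker peptide wells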
Target sequence (P21462 whole entry, looked up): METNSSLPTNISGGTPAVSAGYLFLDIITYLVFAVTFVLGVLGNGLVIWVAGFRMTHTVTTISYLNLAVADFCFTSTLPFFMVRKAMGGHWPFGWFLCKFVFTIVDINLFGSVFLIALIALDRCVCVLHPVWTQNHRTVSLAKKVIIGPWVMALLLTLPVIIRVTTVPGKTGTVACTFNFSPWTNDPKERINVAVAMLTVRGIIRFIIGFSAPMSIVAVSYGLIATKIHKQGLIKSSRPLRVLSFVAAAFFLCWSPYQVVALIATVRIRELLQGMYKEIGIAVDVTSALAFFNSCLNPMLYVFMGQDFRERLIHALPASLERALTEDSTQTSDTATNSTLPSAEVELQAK
VCAM-1 down imaging – suppression of endothelial VCAM-1 upregulation – imaging, high-content imaging, pooled HUVEC, TNFa stimulus (AID 456) | HUVEC TNFa-induced VCAM-1 surface expression, immunofluorescence imaging; numbers were filed only for top-ranked candidate wells | inhibition, % at 5 µM, or IC50 in µM where a hit was titrated | 10,000 compounds, 0.2% hits;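 active means top tenth filtered wells with inhibition above zero that passed visual or statistical confirmation; inactive means the rest, including hits rejected on review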;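 further: 0% = stimulated vehicle wells and 100% = unstimulated cells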
FPRL1 ligand – binds the human formylpeptide receptor-like-1 FPRL1 | FPRL1-expressing cells, fluorescent ligand binding inhibition, flow cytometry | inhibition, %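 (tested at 6.7 µM)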 | 24,000 compounds, 0.3% hits;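 further: 0% = buffer alone and 100% = receptor blocker peptide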
Target sequence (P25090 whole entry, looked up): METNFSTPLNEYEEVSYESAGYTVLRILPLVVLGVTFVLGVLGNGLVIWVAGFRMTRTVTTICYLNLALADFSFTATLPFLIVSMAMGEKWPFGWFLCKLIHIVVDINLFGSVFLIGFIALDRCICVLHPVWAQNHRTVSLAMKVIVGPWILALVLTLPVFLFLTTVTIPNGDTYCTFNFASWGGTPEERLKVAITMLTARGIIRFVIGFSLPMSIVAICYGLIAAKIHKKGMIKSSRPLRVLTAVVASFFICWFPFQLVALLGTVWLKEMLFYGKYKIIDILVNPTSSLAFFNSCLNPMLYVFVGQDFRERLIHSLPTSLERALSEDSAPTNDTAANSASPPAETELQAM
VCAM-1 augmentation – enhancers of VCAM-1 display on endothelial cells, imaging, high-content imaging, pooled HUVEC, TNFa stimulus (AID 457). calls only. Pooled HUVEC, TNFa-induced VCAM-1 immunofluorescence imaging; hits of this screen are not shown here. 10,000 compounds, 0.2% hits;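 active means a top-ranked rise in VCAM-1 staining upheld on image or statistical review; inactive means the rest, including candidates rejected on review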;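 further: compounds tested at 5 µM in the well; cells exposed to compound for 24 hours before fixing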
VCAM-1 down – inhibitors of TNFa-induced VCAM-1 surface display, cell-based, plate reader, pooled HUVEC, TNFa stimulus (AID 454). 10,000 compounds, 0.2% hits. inhibition, % at 5 µM. HUVEC TNFa-induced VCAM-1 surface immunofluorescence, plate reader; numbers were filed only for top-ranked candidate wells;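 active means compound among top-ranked inhibitors of TNF-induced VCAM-1 adhesion protein staining, with the hit upheld by image or statistical review; inactive means the rest, including hits rejected on review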;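 further: 0% = TNFa with vehicle and 100% = cells without TNFa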
The depositor's hits bear a star.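 How the source made its calls, unless noted: active means mean above 30%; inconclusive means self-fluorescent; inactive means the rest.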

What do the screens show for `CC(C)CCNC(=O)C1C2C=CC3(CN(Cc4ccccc4Cl)C(=O)C13)O2` (stereo unspecified)?
FPR binder: 1; FPRL1 ligand: -1

Results for COc1ccc(C)cc1NC(=O)CCN1CCCC1 ?
FPR binder: 13; VCAM-1 down imaging: inactive; FPRL1 ligand: 5; VCAM-1 augmentation: inactive; VCAM-1 down: inactive

What do the screens show for `CC(C)(C)c1cc(NC(=O)c2cc(F)c(F)c(F)c2F)no1`?
FPR binder: -4; VCAM-1 down imaging: 73%; FPRL1 ligand: -7; VCAM-1 augmentation: inactive; VCAM-1 down: 78

Results for CCOc1cc2[nH]c(=S)n(CCCC(=O)NCc3ccco3)c(=O)c2cc1OCC ?
FPR binder: 2; FPRL1 ligand: 0

What do the screens show for `CN1Cc2c(N)cccc2C(c2ccccc2)C1` (stereo unspecified)?
FPR binder: 1; VCAM-1 down imaging: inactive; FPRL1 ligand: -4; VCAM-1 augmentation: inactive; VCAM-1 down: inactive

Results for O=C(Nc1c2c(nn1-c1ccc(F)cc1)CS(=O)(=O)C2)C12CC3CC(CC(C3)C1)C2 ?
FPR binder: 1; FPRL1 ligand: 11

How did CCCN1CCN(CCCNC(=O)CN2C(=O)COc3ccccc32)CC1 do in these assays?
FPR binder: 1; FPRL1 ligand: -3

Results for COc1ccc(C)cc1Nc1cc(C)nc2nc(C)nn12 ?
FPR binder: 8; FPRL1 ligand: 6

What do the screens show for `CC(=O)c1nc2ccccc2n1S(=O)(=O)c1ccc(C)cc1`?
FPR binder: 0; FPRL1 ligand: -2

Results for COc1ccc(C)cc1C(=O)CCC(=O)Nc1ccccc1N1CCOCC1 ?
FPR binder: -4; VCAM-1 down imaging: inactive; FPRL1 ligand: 3; VCAM-1 augmentation: inactive; VCAM-1 down: inactive

How did CC(=O)N1CCc2cc(Br)cc(S(=O)(=O)N3CCN(c4ccccn4)CC3)c21 do in these assays?
FPR binder: 1; FPRL1 ligand: -8

What do the screens show for `CCOc1ccc(-c2noc(=O)[nH]2)cc1`?
FPR binder: 0; FPRL1 ligand: -10

How did COc1ccc(-c2nc3n(n2)C(c2ccccc2)C2=C(CCCC2=O)N3)cc1OC (stereo unspecified) do in these assays?
FPR binder: 5; FPRL1 ligand: -7

Results for Cc1nc2c(-c3ccc(F)cc3)c(C)nn2c(C)c1CCC(=O)N1CCN(c2ccccn2)CC1 ?
FPR binder: 12; FPRL1 ligand: 2

What do the screens show for `COc1cccc(N2C(=O)C(O)=C(C(C)=O)C2c2ccc(OC)c(OC)c2)c1` (stereo unspecified)?
FPR binder: -8; VCAM-1 down imaging: inactive; FPRL1 ligand: 0; VCAM-1 augmentation: inactive; VCAM-1 down: inactive

What do the screens show for `CCN1CCN(CCNC(=O)C2CCN(Cc3nc(-c4ccc(Cl)cc4)oc3C)CC2)CC1`?
FPR binder: -9; FPRL1 ligand: 2

Results for Cc1n[nH]c(C)c1S(=O)(=O)NCCc1ccc(Cl)cc1 ?
FPR binder: 8; FPRL1 ligand: 20

What do the screens show for `Cc1oc(-c2ccccc2)cc1C(N)=O`?
FPR binder: 3; VCAM-1 down imaging: inactive; FPRL1 ligand: 10; VCAM-1 augmentation: inactive; VCAM-1 down: inactive

What do the screens show for `COC(=O)C(C)Sc1nc2c(c(=O)n1-c1ccccc1)SCC2` (stereo unspecified)?
FPR binder: -1; VCAM-1 down imaging: inactive; FPRL1 ligand: 0; VCAM-1 augmentation: inactive; VCAM-1 down: inactive

How did COc1ccc(N(CC(=O)NCc2cccc(OC)c2)S(=O)(=O)c2c(C)noc2C)cc1 do in these assays?
FPR binder: 14; FPRL1 ligand: 7

Results for COc1ccc(OC)c2c1CC(C)(C)NC2=O ?
FPR binder: 0; FPRL1 ligand: -4

How did CCn1cc(C2=NOC(C(=O)Nc3ccccc3C(=O)OC)C2)c(C)n1 (stereo unspecified) do in these assays?
FPR binder: 5; FPRL1 ligand: 7

What do the screens show for `O=C(COc1nsnc1N1CCOCC1)N1CCOCC1`?
FPR binder: -2; FPRL1 ligand: 1

What do the screens show for `O=C(CN1CCN(c2ccccc2F)CC1)Nc1ccccc1F`?
FPR binder: 9; FPRL1 ligand: -5

How did O=C(CSc1nnc(-c2ccccc2F)o1)OCc1ccccc1 do in these assays?
FPR binder: 7; VCAM-1 down imaging: inactive; FPRL1 ligand: 20; VCAM-1 augmentation: inactive; VCAM-1 down: inactive

How did COc1ccc(CNC(=O)C2CC(c3cccc(OC)c3)=NO2)cc1 (stereo unspecified) do in these assays?
FPR binder: -9; FPRL1 ligand: 0

Results for CCOC(=O)c1cccc(NC(=O)CSc2nc3cccnc3n2C)c1 ?
FPR binder: 8; VCAM-1 down imaging: inactive; FPRL1 ligand: 7; VCAM-1 augmentation: inactive; VCAM-1 down: inactive

What do the screens show for `Cc1nc(C)c(C(=O)C2=C(O)C(=O)N(CCCn3ccnc3)C2c2ccccc2)s1` (stereo unspecified)?
FPR binder: 1; VCAM-1 down imaging: inactive; FPRL1 ligand: 4; VCAM-1 augmentation: inactive; VCAM-1 down: inactive

Results for Nc1nonc1-c1noc(-c2ccccc2Br)n1 ?
FPR binder: -1; VCAM-1 down imaging: inactive; FPRL1 ligand: 0; VCAM-1 augmentation: inactive; VCAM-1 down: inactive

What do the screens show for `COc1ccc(C(c2nnnn2C2CCCC2)N2CCN(C3CCCC3)CC2)cc1OC` (stereo unspecified)?
FPR binder: 4; VCAM-1 down imaging: inactive; FPRL1 ligand: -6; VCAM-1 augmentation: inactive; VCAM-1 down: inactive

4 successive entries from above, for reference:
How did CCn1cc(C2=NOC(C(=O)Nc3ccccc3C(=O)OC)C2)c(C)n1 (stereo unspecified) do in these assays?
FPR binder: 5; FPRL1 ligand: 7

What do the screens show for `O=C(COc1nsnc1N1CCOCC1)N1CCOCC1`?
FPR binder: -2; FPRL1 ligand: 1

What do the screens show for `O=C(CN1CCN(c2ccccc2F)CC1)Nc1ccccc1F`?
FPR binder: 9; FPRL1 ligand: -5

How did O=C(CSc1nnc(-c2ccccc2F)o1)OCc1ccccc1 do in these assays?
FPR binder: 7; VCAM-1 down imaging: inactive; FPRL1 ligand: 20; VCAM-1 augmentation: inactive; VCAM-1 down: inactive

Further structures follow.
What do the screens show for `Cc1ccc(NC(=O)CSc2nc3c(c(=O)[nH]2)CCC3)cc1C`?
FPR binder: 20; FPRL1 ligand: -2

Results for O=C(OCC#CCSc1nc2ccccc2o1)c1ccco1 ?
FPR binder: 0; VCAM-1 down imaging: inactive; FPRL1 ligand: 7; VCAM-1 augmentation: inactive; VCAM-1 down: inactive

Results for CSC1=N/C(=C\C=C\c2cccs2)C(=O)S1 ?
FPR binder: 2; VCAM-1 down imaging: inactive; FPRL1 ligand: -1; VCAM-1 augmentation: inactive; VCAM-1 down: inactive

Results for O=C(COc1ccccc1Br)c1ccc(O)cc1O ?
FPR binder: -3; FPRL1 ligand: 0

How did COc1ccccc1C(=O)NC(C)C(c1cccs1)N1CCOCC1 (stereo unspecified) do in these assays?
FPR binder: -7; FPRL1 ligand: 4

How did COCc1cc(C)nc(SCC(=O)NCc2ccco2)c1C#N do in these assays?
FPR binder: 6; FPRL1 ligand: 4

What do the screens show for `O=C(O)c1ccccc1C(=O)NCc1ccc(F)cc1`?
FPR binder: -1; FPRL1 ligand: -2

Results for Cc1cc(NC(=O)CCn2c(=O)sc3ccccc32)no1 ?
FPR binder: 14; FPRL1 ligand: 6

How did CCOC(=O)N1CCC(NC(=O)CSCc2nc(-c3sccc3C)oc2C)CC1 do in these assays?
FPR binder: -3; FPRL1 ligand: 0

How did O=C(NCCOC(=O)C1COc2ccccc2O1)C1COc2ccccc2O1 (stereo unspecified) do in these assays?
FPR binder: -6; VCAM-1 down imaging: inactive; FPRL1 ligand: 2; VCAM-1 augmentation: inactive; VCAM-1 down: inactive

Results for O=C(Cn1c(=O)oc2ccccc21)NCc1ccco1 ?
FPR binder: 1; FPRL1 ligand: -6

How did CCCCOC(=O)Nc1ccc(S(=O)(=O)Nc2cc(C)nc(C)n2)cc1 do in these assays?
FPR binder: 5; FPRL1 ligand: 0

What do the screens show for `Cn1c(=O)cc(SCC(=O)NCCCN2CCN(c3ccc(F)cc3)CC2)c2ccccc21`?
FPR binder: 3; FPRL1 ligand: 2

What do the screens show for `CCc1nc(SCC(=O)Nc2cc(C)on2)n[nH]1`?
FPR binder: -1; FPRL1 ligand: 4

Results for Cc1cc(=O)n2nc(N3CCCC(C(=O)N4CCN(c5ccccc5)CC4)C3)sc2n1 (stereo unspecified) ?
FPR binder: -7; FPRL1 ligand: 7

How did CCOC(=O)Nc1cccc(Cl)c1C do in these assays?
FPR binder: -2; FPRL1 ligand: -1

How did CCCN(CCC)CCNC(=O)C(NS(=O)(=O)c1ccc2c(c1)CCC(=O)N2)c1ccccc1 (stereo unspecified) do in these assays?
FPR binder: -4; VCAM-1 down imaging: inactive; FPRL1 ligand: -5; VCAM-1 augmentation: inactive; VCAM-1 down: inactive

How did CCOC(=O)c1ccc(NC(=O)CSc2nnc(Cn3c(=O)sc4ccccc43)n2C)cc1 do in these assays?
FPR binder: -7; FPRL1 ligand: 3

How did CCOc1ccc(CNC(=O)C2CCC(=O)N2C2CCCC2)cc1OC (stereo unspecified) do in these assays?
FPR binder: -2; FPRL1 ligand: -4

How did CCCCNC(=O)c1ccc2nc(-c3ccco3)c(-c3ccco3)nc2c1 do in these assays?
FPR binder: 4; FPRL1 ligand: -3

Results for CC1CC(C)CN(S(=O)(=O)c2cccc3cccnc23)C1 (stereo unspecified) ?
FPR binder: 2; FPRL1 ligand: 0

Results for COc1ccccc1S(=O)(=O)Cc1ccc(C(=O)N2CCOCC2)o1 ?
FPR binder: 0; VCAM-1 down imaging: inactive; FPRL1 ligand: -1; VCAM-1 augmentation: inactive; VCAM-1 down: inactive

Results for Cc1nn(C)c(C)c1S(=O)(=O)N1CCCC(C(=O)N2CCN(c3ccccc3)CC2)C1 (stereo unspecified) ?
FPR binder: 2; FPRL1 ligand: -5

How did Cn1c(SCC(=O)N2CCCCCC2)nc2c([nH]c3ccccc32)c1=O do in these assays?
FPR binder: 5; FPRL1 ligand: -9

How did O=c1c2cnn(-c3ccccc3)c2ncn1Cc1cccnc1 do in these assays?
FPR binder: -2; FPRL1 ligand: -6

What do the screens show for `Cc1[nH]c(C)c(C(=O)O)c1CNC1CCCCC1C` (stereo unspecified)?
FPR binder: -1; FPRL1 ligand: 4

What do the screens show for `Cc1ccc(-c2nc3ccccc3[nH]2)s1`?
FPR binder: -1; VCAM-1 down imaging: inactive; FPRL1 ligand: -7; VCAM-1 augmentation: inactive; VCAM-1 down: inactive

Results for CC1(C)Cc2c(sc3c2c(=N)n(Cc2ccco2)c(=O)n3Cc2ccccc2)CO1 ?
FPR binder: 3; VCAM-1 down imaging: inactive; FPRL1 ligand: 5; VCAM-1 augmentation: inactive; VCAM-1 down: inactive

How did c1ccc(Cn2nnc3c(N4CCOCC4)ncnc32)cc1 do in these assays?
FPR binder: 4; FPRL1 ligand: 0

Results for O=C(NC1CC1)C1CCN(c2ccc(S(=O)(=O)N3CCOCC3)cc2)CC1 ?
FPR binder: -1; VCAM-1 down imaging: inactive; FPRL1 ligand: 4; VCAM-1 augmentation: inactive; VCAM-1 down: inactive

Results for CCCCC(CC)CNC(=O)CCS(=O)(=O)c1cccc2nonc12 (stereo unspecified) ?
FPR binder: 6; FPRL1 ligand: -3

What do the screens show for `CCCOc1ccc(/C(O)=C2/C(=O)C(=O)N(CCN3CCOCC3)C2c2ccccc2)cc1` (stereo unspecified)?
FPR binder: 1; FPRL1 ligand: -2

What do the screens show for `CN1CCN(C(=O)CN(Cc2ccc(Cl)cc2)S(C)(=O)=O)CC1`?
FPR binder: 10; VCAM-1 down imaging: inactive; FPRL1 ligand: -8; VCAM-1 augmentation: inactive; VCAM-1 down: inactive

What do the screens show for `COc1ccc2[nH]c(=O)c(CN(C(=O)c3ccncc3)C(C)C)cc2c1`?
FPR binder: -1; VCAM-1 down imaging: inactive; FPRL1 ligand: -4; VCAM-1 augmentation: inactive; VCAM-1 down: inactive

How did CCOC(=O)N1CCN(C(=O)COc2cc(=O)n(C)c3ccccc23)CC1 do in these assays?
FPR binder: -4; VCAM-1 down imaging: inactive; FPRL1 ligand: 0; VCAM-1 augmentation: inactive; VCAM-1 down: inactive

What do the screens show for `Cc1ccc(Cl)cc1NS(=O)(=O)c1c(C)[nH]c(=O)[nH]c1=O`?
FPR binder: -1; FPRL1 ligand: -1

Results for COc1ccc(NC(=O)CCn2nc(C)cc2C)cc1 ?
FPR binder: 5; FPRL1 ligand: -4

How did CCCCc1c(C)c2ccc(OC)c(/C(C)=N\O)c2oc1=O do in these assays?
FPR binder: 9; FPRL1 ligand: 4

Results for CCn1cc(CNC(=O)CCc2ccc(OC)cc2)cn1 ?
FPR binder: -5; FPRL1 ligand: -2

Some of the compounds tested (hit frequency here may not be typical).
